TSHR ag: activates the human thyroid stimulating hormone receptor. P16473. HEK293-CNG-TSHR cells (CNG channel as cAMP sensor), membrane potential dye, cAMP. Potency, µM (top dose mostly 57.1 µM), for inactives: at the highest dose activation, usual class: activators. 73,000 tested, 0.48% active; active = well fitted activation curve of enough size with the parental cells flat; inconclusive = any curve in the parental cells; inactive = parental cells flat and receptor cells flat or falling; note: potency is the fitted concentration of half-maximal effect; % of control where 0% means no effect; weak receptor curves with flat parental cells got no call and are not listed
Target sequence (P16473 whole entry, looked up): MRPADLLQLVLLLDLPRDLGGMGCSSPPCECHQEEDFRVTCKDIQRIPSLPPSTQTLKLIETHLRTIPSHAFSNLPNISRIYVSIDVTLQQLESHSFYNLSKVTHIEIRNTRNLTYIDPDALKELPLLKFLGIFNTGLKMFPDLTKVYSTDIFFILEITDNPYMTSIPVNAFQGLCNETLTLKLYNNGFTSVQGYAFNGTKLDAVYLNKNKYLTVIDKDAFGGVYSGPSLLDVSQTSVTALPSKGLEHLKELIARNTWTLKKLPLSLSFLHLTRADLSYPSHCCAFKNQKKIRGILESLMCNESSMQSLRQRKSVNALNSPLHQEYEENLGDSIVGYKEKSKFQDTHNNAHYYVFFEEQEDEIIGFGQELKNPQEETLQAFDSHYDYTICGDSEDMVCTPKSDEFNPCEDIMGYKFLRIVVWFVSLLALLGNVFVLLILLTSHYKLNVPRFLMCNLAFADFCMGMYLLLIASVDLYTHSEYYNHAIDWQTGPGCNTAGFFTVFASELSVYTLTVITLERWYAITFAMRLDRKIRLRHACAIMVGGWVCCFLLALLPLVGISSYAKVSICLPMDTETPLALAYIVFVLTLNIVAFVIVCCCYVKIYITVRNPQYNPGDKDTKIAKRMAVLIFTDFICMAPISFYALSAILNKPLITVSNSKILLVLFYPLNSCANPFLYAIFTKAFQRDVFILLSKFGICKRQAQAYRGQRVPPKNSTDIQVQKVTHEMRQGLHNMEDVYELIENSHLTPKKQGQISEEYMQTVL
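cAMP rise detected as CNG-channel membrane depolarization by fluorescent dye (emission 590 nm), 30 min after compound, following 60 min dye loading containing 100 uM RO 20-1724 at room temperature. Cells: TSHR/CNG HEK 293, with parental CNG HEK 293 as control.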
A647 autofl: A647 region autofluorescence; 59,000 tested, under 10 active; Compound fluorescence, A647 channel (570/671 nm), Tris buffer; max dye-equivalent concentration, M; active means above 1 µM dye equivalent; inconclusive means 0.1 to 1 µM; inactive means 0.1 µM or less;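 note: values scaled relative to a standard on each plate; highest value over a series up to 38 µM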
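Compounds pinned into 100 mM Tris pH 8.0, 15 min at room temperature, then read with 570 nm excitation/671 nm emission filters. Fluorescence normalized to an on-plate six-point Alexa 647 standard curve, giving dye-equivalent concentration per compound concentration.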
Resorufin fluor: resorufin region autofluorescence; AID 588; Compound fluorescence, resorufin region 547/598 nm, buffer; hits give high values; max dye-equivalent concentration, M; 59,000 tested, 0.04% active; active = above 10 nM dye equivalent; inconclusive = 1 to 10 nM; inactive = 1 nM or less; a few of its hits are not listed in these tables; note: highest value over a series up to 38 µM
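Intrinsic fluorescence profiled in the resorufin window (ex 547 nm, em 598 nm) after 15 min at room temperature in pH 8.0 Tris buffer (100 mM); responses normalized against a six-point resorufin standard series as dye-equivalent concentration.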
AID923: qHTS Assay for Allosteric/Competitive Inhibitors of Caspase-1: Spectroscopic Profiling in AFC Spectral Region; compound fluorescence, AFC spectral region (405/520 nm); almost no hit is shown here; Potency, µM (top dose mostly 57.5 µM), without a hit: at the highest dose fluorescence increase, most hits filed as activators; 75,000 tested, 1.1% active; active = well fitted activation curve with a large enough effect; inconclusive = small, poorly fitted or top-dose-only effect;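 note: potency is the fitted concentration of half-maximal effect; 0% is about no effect; scaled to a free AFC standard on each plate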
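Compound autofluorescence profiled at 405 nm ex/520 nm em during kinetic caspase 1 run (50 nM enzyme, 5 uM Ac-WEHD-AFC, HEPES pH 7.5, 10 mM DTT). Titration up to 57 uM; baseline from regression intercept, normalized to AFC standard curve.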
A488 autofl: compound fluoresces in the A488 spectral region; compound autofluorescence, A488 spectral region, dye equivalency; hits give high values; max dye equivalency, M; 59,000 tested, 0.1% active; AID 591; active = above 10 nM dye equivalent; inconclusive = 1 to 10 nM; inactive = 1 nM or less; about half of its hits are not listed in these tables;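 note: highest value over a series up to 38 µM; compound alone in buffer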
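Read-out: relative fluorescence at 480/540 nm, expressed as Alexa 488 dye-equivalent concentration from a six-point A488 standard included per plate. Conditions: 100 mM Tris, pH 8.0; 15 min incubation, room temperature.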
The depositor's hits bear a star; i = inactive; ? = inconclusive; nt = no result given; [ ] = dose if it differs, or a comment.

SMILES	TSHR ag	A647 autofl	Resorufin fluor	AID923	A488 autofl
COCc1nnc(SCC(=O)NC(C)c2ccccc2)n1-c1ccccc1 (stereo not given)	-1%	1e-09	i	-0.9%	i
Cc1cc(-c2nnc3sc(-c4ccc(Cl)cc4Cl)nn23)n[nH]1	17%	1e-09	i	0.2%	i
C/C(Cl)=C\Cn1c(Nc2ccccc2)nc2c1c(=O)n(C)c(=O)n2C	?	1e-09	i	-0.4%	i
CC1(C)Cc2cccc(OCC(=O)Nc3ccccc3N3CCOCC3)c2O1	?	4.1e-08	i	-0.8%	i
Cc1ccc(N2CC(C(=O)Nc3nnc(C)s3)CC2=O)cc1 (stereo not given)	2%	1.3e-09	i	0.0%	i
Cc1ccc(N2C(=O)c3n[nH]c(C)c3C2c2cccnc2)cc1 (stereo not given)	0%	7.3e-09	i	-0.8%	i
CCC(C)NC(=O)CSc1nc2ccccc2c(=O)n1CCCC(=O)NCC1CCCO1 (stereo not given)	11%[11.4 µM]	7.1e-09	i	-0.2%	i
C=CCNC(=O)c1ccc(Cl)cc1Cl	4%	1e-09	i	0.8%	i
CN1CCN(C(=O)c2ccccc2-c2ccccc2C(=O)O)CC1	-7%	1e-09	i	0.7%	i
O=S(=O)(O)c1cc(O)c2c(O)c(N=Nc3cccc4ccccc34)c(S(=O)(=O)O)cc2c1	-9%[11.4 µM]	2.7e-09	i	-1.3%[11.5 µM]	i
CSc1nc(N2CCOCC2)c2c3c(sc2n1)CCC3	14%	1e-09	i	0.8%	i
CCc1ccc(N/C(SC)=C(/C#N)C(N)=O)cc1	-1%	1.6e-08	i	-0.2%	i
Nc1c(C(=O)NC2CCCCC2)nsc1C(=O)OCC(=O)NC1CCCCC1	?	4.5e-09	i	2.7%	i
COc1ccc(-c2noc(COc3ccc4c(c3)OCO4)n2)cc1OC	?	1.6e-08	i	2.4%	i
CCC(C)(C(=O)NC1CCCCC1)N(Cc1ccco1)C(=O)c1ccc2c(c1)OCO2 (stereo not given)	?	3.6e-08	i	-1.6%	i
Cc1cc(=O)[nH]c(SCC(=O)Nc2ccc(S(=O)(=O)N3CCCCC3)cc2)n1	17%	6e-08	i	-1.6%	i
CCOC(=O)COc1ccc(S(=O)(=O)Nc2ccc3c(c2)OCO3)cc1	6%	2.2e-08	i	1.8%	i
O=C(CN1CCN(c2ncc(C(F)(F)F)cc2Cl)CC1)Nc1ccc2c(c1)OCO2	?	2e-08	i	-0.6%	i
CC(C)CN1CCCC2(CCN(C(=O)c3cccc(F)c3)CC2)C1	?	2.6e-08	i	3.9%	i
CC(C)n1cnc2cc(NCc3nc4ccccc4n3C)ccc21	-10%	1.7e-08	i	0.3%	i
O=C(CCCN1C(=O)CCC1=O)Nc1ccc(Cl)c(C(F)(F)F)c1	-12%	1e-09	i	-0.3%	i
Cc1coc2c(C)c3oc(=O)c4c(c3cc12)CCC4	nt	1.7e-08	i	3.5%	i
CC1CCN(S(=O)(=O)c2ccc3[nH]c(=O)cc(C(=O)O)c3c2)CC1	1%	1e-09	i	-1.2%	i
COc1ccc(Cn2c(C3CC3)nc3ccc(NC(C)=O)cc3c2=O)cc1	nt	1e-09	i	-4.4%	i
Cc1ccc(S(=O)(=O)NC(C)C(=O)Nc2ccccc2C(=O)N2CCCC2)cc1 (stereo not given)	2%	3.9e-08	i	0.8%	i

Pulled by structure from the list above:
SMILES	TSHR ag	A647 autofl	Resorufin fluor	AID923	A488 autofl
Cc1ccc(N2C(=O)c3n[nH]c(C)c3C2c2cccnc2)cc1 (stereo not given)	0%	7.3e-09	i	-0.8%	i
Cc1ccc(N2CC(C(=O)Nc3nnc(C)s3)CC2=O)cc1 (stereo not given)	2%	1.3e-09	i	0.0%	i

Other entries follow.
SMILES	TSHR ag	A647 autofl	Resorufin fluor	AID923	A488 autofl
CC(=O)Nc1nc(C(=O)Nc2c(C)n[nH]c2C)cs1	-3%	1e-09	i	-2.3%	i
CC(=O)c1c(N2CCN(Cc3ccccc3)CC2)[nH]c(-c2ccccc2)nc1=S	?	nt	nt	-2.8%	nt
Cc1nn(CC(=O)N2CCN(Cc3ccccc3)CC2)c(=O)c2ccccc12	1%	1e-09	i	-0.7%	i
COc1ccc(Oc2ncc3nc(CCc4ccccc4)c(=O)n(C4CC4)c3n2)cc1	?	3.4e-08	i	2.9%	i
CCOC(=O)CC(=O)CSc1nc2c(cc1C#N)CCCCCC2	nt	2.4e-09	i	nt	i
COc1ccc(C2C(C(=O)N3CCCCC3)CCC(=O)N2c2cc(OC)c(OC)c(OC)c2)cc1 (stereo not given)	nt	1e-09	i	-0.5%	i
Cc1csc(NC(=O)CSc2nnc(C)n2Cc2ccco2)n1	1%	8.3e-09	i	-1.5%	i
CN(C)c1ccc(-c2noc(C3CCN(S(=O)(=O)c4cccc(Cl)c4)CC3)n2)cc1	-3%	1.7e-08	i	-2.8%	i
CCCNC(=O)OC[C@@H]1O[C@H](CCO/N=C\C[C@H]2C=C[C@H](OC(C)=O)[C@@H](COC(C)=O)O2)C=C[C@@H]1Oc1ccc(OC)cc1	2%[11.4 µM]	nt	nt	-1.0%[11.5 µM]	nt
O=C(CSc1ccc2nnc(-c3ccc(F)cc3)n2n1)N1CCCCC1	7%[11.4 µM]	8e-09	i	-0.9%	i
Cc1cc(C(=O)CSc2nnc(NCc3ccccc3)s2)c(C)n1C	10%	3.9e-09	i	0.3%	i
Cc1cc2n(n1)C(c1ccco1)Nc1ccccc1-2 (stereo not given)	-1%[11.4 µM]	1e-09	i	2.8%	i
CCc1nnc(NC(=O)C2CCCN2S(=O)(=O)c2ccc(C)cc2)s1 (stereo not given)	2%	3.2e-08	i	-0.5%	i
O=C(CSc1ncc(-c2ccc(F)cc2)[nH]1)NCc1ccco1	-5%	1e-09	i	0.3%	i
O=c1c(O)c(-c2ccc(O)c(O)c2)oc2ccccc12	-10%	1e-09	i	2.0%	i
Nn1c(Cc2ccccc2F)nnc1SCn1nnc2ccccc2c1=O	nt	9.2e-09	i	-1.0%	i
N[C@H](C(=O)O)c1ccc(O)c(C(=O)O)c1	-1%	nt	nt	-2.2%	nt
O=c1cc(CO)occ1O	-4%	1e-09	i	-1.1%	i
CCOC(=O)CN(C(=O)CSc1nnc(CNc2ccc(C)cc2C)n1CC)c1ccccc1	7%	1e-09	i	0.4%	i
O=C1NCC(O)=C1C=NC12CC3CC(CC(C3)C1)C2	2%[11.4 µM]	1.7e-08	i	-4.6%	i
Cc1cccc(NC(=O)C2c3ccccc3C(=O)N3CCc4ccccc4C23)n1 (stereo not given)	20%	1e-09	i	-0.1%	i
Cc1cc(=O)c2ccccc2s1	3%[11.4 µM]	1e-09	i	0.4%	i
CC1=C(C(=O)Nc2ccc(F)cc2)C(c2ccncc2)C2=C(CCCC2=O)N1 (stereo not given)	-12%	1.3e-09	i	14%	i
C=CCOc1ccc(NC(=O)C2CC(=O)N(C(C)C)C2)cc1 (stereo not given)	2%	1e-09	i	-0.2%	i
COC(=O)c1ccc2c(c1)NC(=O)C(N1CCOCC1)S2 (stereo not given)	1%	3.8e-08	i	0.8%	i

Additional entries
SMILES	TSHR ag	A647 autofl	Resorufin fluor	AID923	A488 autofl
O=C(CSc1nnc(-c2ccco2)o1)N1c2ccccc2CCc2ccccc21	?	1.8e-08	i	1.4%	i
Cc1c(NS(=O)(=O)c2ccc3c(c2)c(=O)n(C)c(=O)n3C)c(=O)n(-c2ccccc2)n1C	-1%	1e-09	i	1.5%	i
Cc1cc(NC(=O)CSc2nnc(C(C)N(C)C)n2Cc2ccccc2)no1 (stereo not given)	4%	1e-09	i	-1.7%	i
COc1cccc(S(=O)(=O)Nc2ccc(C(=O)N3CCOCC3)cc2)c1	4%	2.9e-09	i	3.4%	i
CC1CCCN(C(=O)c2ccc3c(c2)C(=O)N(CCC2=CCCCC2)C3=O)C1 (stereo not given)	?	nt	nt	-0.9%	nt
COCCn1c(=O)c(-c2cn(C)c3ccccc23)nc2cncnc21	8%	1e-09	i	11%	i
O=C(Nc1ccncc1)Nc1ccccn1	-6%	2.8e-08	i	0.4%	i
Cc1nnc(NC(=O)c2cc3n(n2)C(C(F)(F)F)CC(C2CC2)N3)s1 (stereo not given)	-1%	1e-09	i	-0.4%	i
COCCn1c(=O)c(-c2cccc(C#N)c2)nc2cnc(Oc3ccc(OC)cc3)nc21	17%	1e-09	i	2.6%	i
COc1nnc(-c2ccc(N3CCOCC3)c(NC(=O)c3ccco3)c2)c2ccccc12	21%	1.1e-08	i	-0.2%	i
O=C(/C=C\c1ccc(O)c(O)c1)OCCc1ccccc1	?	4.1e-08	i	-5.5%	i
CCc1ccc(CC)c(S(=O)(=O)Nc2ccc(O)c(C(=O)O)c2)c1	6%	3.1e-08	i	-3.6%	i
CCOC(=O)CC(=O)CSc1nc2c(cc1C#N)CCCCC2	nt	8.9e-08	i	nt	i
O=C(NC(Cc1ccc(F)cc1)C(=O)O)c1ccccc1 (stereo not given)	9%	2.2e-09	i	4.5%	i
COC(=O)c1cccc(S(=O)(=O)N2CCC(n3nnc4cc(F)ccc43)CC2)c1	?	2.2e-08	i	0.5%	i
CCCCn1c(CN2CCN(C(=O)c3ccco3)CC2)nc2c1c(=O)n(C)c(=O)n2C	-1%	nt	nt	-3.7%	nt
O=c1c2[nH]c3ccc(F)cc3c2ncn1CCCn1ccnc1	-7%	4e-09	i	-1.0%	i
COc1cccc(NC(=O)c2cccnc2)c1	?	nt	nt	0.4%	nt
O=c1c2ccccc2nnn1Cc1ccccn1	-1%	1e-09	i	-2.6%	i
O=C(CCC(=O)N1CCCC1)Nc1nnc(C(F)(F)F)s1	-2%	2.6e-08	i	-0.9%	i
CCOC(=O)N1CCN(C(=O)CSc2nc3c(cnn3-c3ccc(C)cc3)c(=O)[nH]2)CC1	-4%	nt	nt	-1.0%	nt
Cc1cc(=O)n2nc(N3CCCC(C(=O)NCCc4ccccc4)C3)sc2n1 (stereo not given)	1%	3.3e-08	i	-1.3%	i
CCOC(=O)C1CCCN(C(=O)c2cc(Nc3ccc(OC)c(OC)c3)nc3ccccc23)C1 (stereo not given)	-1%[11.4 µM]	3e-08	i	-1.0%	i
Cc1ccc2oc(=O)c3cnn(CC(=O)N4CCCCC4C)c3c2c1 (stereo not given)	13%	nt	nt	-1.5%	nt
CC(=O)Nc1ccccc1C	2%	nt	nt	-0.8%	nt

The list goes on:
SMILES	TSHR ag	A647 autofl	Resorufin fluor	AID923	A488 autofl
CSc1nc(-c2ccco2)nn1C(=O)c1cccs1	3%	1e-09	i	0.1%	i
CC(=O)N1CCN(CCN=CC2=C(O)CC(c3ccc(Cl)cc3)CC2=O)CC1 (stereo not given)	11%	nt	nt	-1.1%	nt
CN(C)c1ccc(CN2CCCC(O)C2)cc1 (stereo not given)	-10%[11.4 µM]	nt	nt	2.8%	nt
CCOC(=O)N1CC=C2C(C#N)=C(N)C(C#N)(C#N)[C@H](c3cccs3)[C@H]2C1	nt	8.4e-08	i	nt	i
OCCNCC(O)Cn1ccc2ccccc21 (stereo not given)	?	1.4e-08	i	-1.0%	i
CCOCCCNC(=O)C(c1ccc(OC)cc1)N(Cc1ccc2c(c1)OCO2)C(=O)CNC(C)=O (stereo not given)	12%	4.2e-09	i	-2.8%	i

Entries above that have a CF3 group:
SMILES	TSHR ag	A647 autofl	Resorufin fluor	AID923	A488 autofl
O=C(CN1CCN(c2ncc(C(F)(F)F)cc2Cl)CC1)Nc1ccc2c(c1)OCO2	?	2e-08	i	-0.6%	i
O=C(CCCN1C(=O)CCC1=O)Nc1ccc(Cl)c(C(F)(F)F)c1	-12%	1e-09	i	-0.3%	i
Cc1nnc(NC(=O)c2cc3n(n2)C(C(F)(F)F)CC(C2CC2)N3)s1 (stereo not given)	-1%	1e-09	i	-0.4%	i
O=C(CCC(=O)N1CCCC1)Nc1nnc(C(F)(F)F)s1	-2%	2.6e-08	i	-0.9%	i

Screens from PubChem.

An excerpt; the hit share may differ from the screen's.
